GALR2 agonist: activates the human galanin receptor 2. O43603. GALR2-expressing cells, agonist activation read-out. activation, %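 (tested at 5 µM)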. 140,000 tested, 0.48% active;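 active = above mean plus 3 SD of all compounds, about 5% in these data, not always enough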;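 also: 0% = vehicle buffer wells and 100% = reference agonist at full effect; tested in CHO reporter cells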
Insulin prom inh: TRM-6 insulin promoter activity inhibition. TRM-6 cells (human fetal islet line), insulin promoter-eGFP reporter, imaging; reporter expression induced with tamoxifen. inhibition, % at 2 µM. 130,000 tested, 0.9% active. AID 1273;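 active = inhibition above the mean plus 3 SD, with well images judged a real hit on visual review, cut at about 60% in these data, passing the limit was not always enough; inconclusive = inhibition over the cutoff but images rejected on review; inactive = inhibition not above the cutoff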
PKD1 kinase inh: PKD1 (human) kinase inhibition | Q15139 | PKD1 kinase fluorescence polarization assay | inhibition, %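 (about 10 µM by stock and volumes)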 | 200,000 tested, 0.056% active;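 active = inhibition of 50% or more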;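 also: controls were vehicle for no effect and a reference inhibitor for full effect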
Target sequence (Q15139 whole entry, looked up): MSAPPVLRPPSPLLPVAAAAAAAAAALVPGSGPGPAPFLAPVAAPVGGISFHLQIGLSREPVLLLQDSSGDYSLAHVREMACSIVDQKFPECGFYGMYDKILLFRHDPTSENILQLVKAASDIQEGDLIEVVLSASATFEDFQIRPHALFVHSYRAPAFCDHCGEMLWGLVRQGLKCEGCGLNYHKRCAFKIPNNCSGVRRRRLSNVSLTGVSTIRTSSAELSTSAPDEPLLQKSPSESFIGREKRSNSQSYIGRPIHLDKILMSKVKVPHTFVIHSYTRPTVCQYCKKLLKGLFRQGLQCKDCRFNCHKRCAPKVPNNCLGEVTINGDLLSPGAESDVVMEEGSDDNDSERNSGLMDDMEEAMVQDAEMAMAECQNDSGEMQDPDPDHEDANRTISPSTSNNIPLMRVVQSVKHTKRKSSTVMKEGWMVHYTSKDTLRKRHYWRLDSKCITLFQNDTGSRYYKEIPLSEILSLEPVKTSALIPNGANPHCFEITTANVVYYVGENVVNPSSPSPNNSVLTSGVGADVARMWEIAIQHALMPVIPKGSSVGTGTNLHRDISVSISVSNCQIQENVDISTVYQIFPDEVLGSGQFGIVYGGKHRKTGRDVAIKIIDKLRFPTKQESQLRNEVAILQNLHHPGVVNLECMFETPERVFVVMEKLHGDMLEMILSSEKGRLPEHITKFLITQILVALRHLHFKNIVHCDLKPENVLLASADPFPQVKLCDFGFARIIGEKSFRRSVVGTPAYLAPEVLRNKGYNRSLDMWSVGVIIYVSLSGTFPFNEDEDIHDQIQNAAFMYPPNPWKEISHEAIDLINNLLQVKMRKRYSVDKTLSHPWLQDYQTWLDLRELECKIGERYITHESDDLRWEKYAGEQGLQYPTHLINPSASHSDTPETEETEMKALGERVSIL
RGS16-Gao: modulates binding between human RGS16 and Galphao | O15492+P09471 | bead-based flow cytometry RGS16-Galphao binding, fluorescence; actives lie on both sides | binding response (% of control), % at 10 µM | 220,000 tested, 0.38% active | AID 1441;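 active = below 25% or above 175%, edge rows of some plates excepted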;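 also: Galphao activated by GDP with aluminum fluoride before binding; 100% = wells without compound and 0% = beads without RGS; some results beyond the cut were filed as inactive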
HSV augment: HSV replication enhancement. maximum fold increase. 220,000 tested, 0.005% active. AID 1956. HSV replication augmentation in cells, fold increase;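 active = peak rise of 1.5-fold or more in the series; inconclusive = self-fluorescent or not available for retest; tested in PC3 cells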;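 also: first round at 10 µM; read as green reporter fluorescence; hits show the peak of a series up to 25 µM; 1 = signal of infected wells without compound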
Insulin prom inh cell count: recorded beside Insulin prom inh, whose call it bears; normalized cell count, %; measured here: cell count, toxicity; reference of the scale not given here;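 cells exposed to compound for 48 h; stained nuclei by imaging scaled within each plate; lower means fewer cells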
HSV augment primary fold: further read-out of HSV augment, marked with its call; fold increase; compound at 10 µM; measured here: primary screen fold increase 10 uM; tested in PC3 cells;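 GFP signal in the first replicate; 1 = infected wells without compound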
Active calls of the source: *. This is a random part of the collection; any-hit rate near 1.3%.

Cc1cccc(NC(=O)c2cnc3n(c2=O)CCS3)c1 was read as GALR2 agonist -1.4, Insulin prom inh 43, PKD1 kinase inh 3, RGS16-Gao 104, HSV augment inactive, Insulin prom inh cell count 160 and HSV augment primary fold 1.
For COc1ccccc1NC(=S)NNC(=O)c1nn(C)c(C)c1Br the results were GALR2 agonist 0.0, Insulin prom inh -13, PKD1 kinase inh -1, RGS16-Gao 106, HSV augment inactive, Insulin prom inh cell count 88 and HSV augment primary fold 1.
For NC(=O)c1cccnc1Oc1cccc(Cl)c1 the results were GALR2 agonist -0.4, Insulin prom inh 8, PKD1 kinase inh -4, RGS16-Gao 103, HSV augment inactive, Insulin prom inh cell count 102 and HSV augment primary fold 1.1.
CSc1ccc(-c2ccco2)nn1 was read as Insulin prom inh -54, PKD1 kinase inh -3, RGS16-Gao 96 and Insulin prom inh cell count 110.
`COc1ccc(C2C(C#N)=C(N)Oc3n[nH]c(-c4ccccn4)c32)c(OC)c1OC` (stereo not given) gave GALR2 agonist 0.1, PKD1 kinase inh 3 and RGS16-Gao 113.
`Cc1occc1C(=O)NNC(=O)c1nn(C)c(=O)c2ccccc12` gave PKD1 kinase inh 7, RGS16-Gao 98, HSV augment inactive and HSV augment primary fold 1.1.
Screening CCOc1ccc(NC(=O)CC2C(=O)N(c3cccc(OC)c3)C(=O)N2CCOC)cc1 (stereo not given) returned RGS16-Gao 98, HSV augment inactive and HSV augment primary fold 1.
CCCc1cc(=O)oc2cc(C)cc(OCC(=O)O)c12 was read as GALR2 agonist 0.0, Insulin prom inh -11, PKD1 kinase inh 23, RGS16-Gao 101, HSV augment inactive, Insulin prom inh cell count 88 and HSV augment primary fold 0.98.
O=C(N/N=C/C=C\c1ccco1)c1cccnc1 was read as GALR2 agonist -1.6, Insulin prom inh -16, PKD1 kinase inh -14, RGS16-Gao 96, HSV augment inactive, Insulin prom inh cell count 198 and HSV augment primary fold 0.98.
For COc1cc(O)c(C(CC(=O)N2CCN(c3ccccc3)CC2)c2cc(OC)c(OC)c(OC)c2)c(OC)c1 (stereo not given) the results were RGS16-Gao 111, HSV augment inactive and HSV augment primary fold 0.93.
CC1Cc2ccccc2N1C(=O)CSc1ccccc1 (stereo not given) was read as GALR2 agonist -1.3, Insulin prom inh -58, PKD1 kinase inh -6, RGS16-Gao 99, HSV augment inactive, Insulin prom inh cell count 83 and HSV augment primary fold 0.95.
`CC(C)NC(=O)NC(=O)COc1c(F)c(F)cc(F)c1F` gave GALR2 agonist 0.1, Insulin prom inh 5, PKD1 kinase inh 3, RGS16-Gao 80, HSV augment inactive, Insulin prom inh cell count 105 and HSV augment primary fold 0.99.
COC(=O)C1C(O)=C(C=Nc2ccc3ccccc3c2)C(=O)CC1(C)C (stereo not given) was read as PKD1 kinase inh -2, RGS16-Gao 101, HSV augment inactive and HSV augment primary fold 0.9.
`O=C(NNc1nc2ccccc2s1)Nc1ccc(Cl)c(Cl)c1` gave RGS16-Gao 106, HSV augment inactive and HSV augment primary fold 1.
CCN(CC)CCCN(Cc1cc2ccc(C)c(C)c2[nH]c1=O)C(=O)NC1CCCCC1 was read as GALR2 agonist -1.0, Insulin prom inh 20, PKD1 kinase inh -16, RGS16-Gao 100, HSV augment inactive, Insulin prom inh cell count 85 and HSV augment primary fold 0.84.
`COc1ccccc1/C(O)=C(\C#N)c1nc2ccccc2[nH]1` gave Insulin prom inh -27, PKD1 kinase inh -5, RGS16-Gao 99, HSV augment inactive, Insulin prom inh cell count 109 and HSV augment primary fold 0.95.
`COc1ccc(-c2c(C(=O)O)nc3ccccc3c2C(=O)O)cc1` gave GALR2 agonist -0.1, Insulin prom inh 23, PKD1 kinase inh -1, RGS16-Gao 100, HSV augment inactive, Insulin prom inh cell count 146 and HSV augment primary fold 0.94.
Screening Cc1csc(/C(C#N)=N/O)n1 returned GALR2 agonist 1.9, PKD1 kinase inh -15, RGS16-Gao 105, HSV augment inactive and HSV augment primary fold 0.98.
Screening CC1CCCCC1NC(=S)Nc1ccc(SC(F)F)cc1 (stereo not given) returned GALR2 agonist -0.5, Insulin prom inh 6, PKD1 kinase inh -6, RGS16-Gao 104, HSV augment inactive, Insulin prom inh cell count 241 and HSV augment primary fold 0.92.
Cc1cc(C)c(C#N)c(SCc2c(F)cccc2[N+](=O)[O-])n1 was read as GALR2 agonist -1.1, Insulin prom inh -45, PKD1 kinase inh -4, RGS16-Gao 101, HSV augment inactive, Insulin prom inh cell count 88 and HSV augment primary fold 1.1.

An excerpt from above in order of formula weight, rising:
Cc1cccc(NC(=O)c2cnc3n(c2=O)CCS3)c1 was read as GALR2 agonist -1.4, Insulin prom inh 43, PKD1 kinase inh 3, RGS16-Gao 104, HSV augment inactive, Insulin prom inh cell count 160 and HSV augment primary fold 1.
`COc1ccccc1/C(O)=C(\C#N)c1nc2ccccc2[nH]1` gave Insulin prom inh -27, PKD1 kinase inh -5, RGS16-Gao 99, HSV augment inactive, Insulin prom inh cell count 109 and HSV augment primary fold 0.95.
`CC(C)NC(=O)NC(=O)COc1c(F)c(F)cc(F)c1F` gave GALR2 agonist 0.1, Insulin prom inh 5, PKD1 kinase inh 3, RGS16-Gao 80, HSV augment inactive, Insulin prom inh cell count 105 and HSV augment primary fold 0.99.
Cc1cc(C)c(C#N)c(SCc2c(F)cccc2[N+](=O)[O-])n1 was read as GALR2 agonist -1.1, Insulin prom inh -45, PKD1 kinase inh -4, RGS16-Gao 101, HSV augment inactive, Insulin prom inh cell count 88 and HSV augment primary fold 1.1.
COC(=O)C1C(O)=C(C=Nc2ccc3ccccc3c2)C(=O)CC1(C)C (stereo not given) was read as PKD1 kinase inh -2, RGS16-Gao 101, HSV augment inactive and HSV augment primary fold 0.9.
`O=C(NNc1nc2ccccc2s1)Nc1ccc(Cl)c(Cl)c1` gave RGS16-Gao 106, HSV augment inactive and HSV augment primary fold 1.
For COc1cc(O)c(C(CC(=O)N2CCN(c3ccccc3)CC2)c2cc(OC)c(OC)c(OC)c2)c(OC)c1 (stereo not given) the results were RGS16-Gao 111, HSV augment inactive and HSV augment primary fold 0.93.

Further records follow.
For COc1ccc(S(=O)(=O)N2CCCCCC2)cc1Br the results were PKD1 kinase inh 8, RGS16-Gao 110, HSV augment inactive and HSV augment primary fold 1.
For O=[N+]([O-])c1cccc(CSc2cccc[n+]2[O-])c1 the results were Insulin prom inh -25, PKD1 kinase inh -4, RGS16-Gao 117, HSV augment inactive, Insulin prom inh cell count 77 and HSV augment primary fold 0.91.
`CCC(=O)Nc1cccc(NC(=O)CSc2nnnn2C2CCCC2)c1` gave GALR2 agonist 0.1, PKD1 kinase inh -16, RGS16-Gao 111, HSV augment inactive and HSV augment primary fold 0.97.
For Cc1[nH]c(=O)[nH]c(=O)c1S(=O)(=O)N1CCCC(C(=O)N2CCN(c3cccc(C(F)(F)F)c3)CC2)C1 (stereo not given) the results were Insulin prom inh 26, PKD1 kinase inh -4, RGS16-Gao 103, HSV augment inactive, Insulin prom inh cell count 123 and HSV augment primary fold 0.93.
C/C(=N\NC(=O)COc1ccc(C#N)cc1)c1ccc(N2CCOCC2)cc1 was read as GALR2 agonist -0.3, Insulin prom inh -5, PKD1 kinase inh -10, RGS16-Gao 170, HSV augment inactive, Insulin prom inh cell count 81 and HSV augment primary fold 1.
O=C(NCc1ccccc1Cl)c1cnccc1C(F)(F)F was read as RGS16-Gao 100, HSV augment inactive and HSV augment primary fold 0.99.
For CCOC(=O)c1c(C)oc2ccc(OS(C)(=O)=O)cc12 the results were PKD1 kinase inh -2, RGS16-Gao 109, HSV augment inactive and HSV augment primary fold 0.94.
For CCSc1nnc(N2C(=O)CC(c3ccsc3)C3=C2CC(C)(C)CC3=O)s1 (stereo not given) the results were GALR2 agonist 0.1, PKD1 kinase inh -12, RGS16-Gao 83, HSV augment inactive and HSV augment primary fold 1.1.
Screening CC(C)=C1C(=O)NN(c2ccc(C)c(Cl)c2)C1=O returned GALR2 agonist -1.1, Insulin prom inh 17, PKD1 kinase inh 1, RGS16-Gao 81, HSV augment inactive, Insulin prom inh cell count 83 and HSV augment primary fold 1.
`Cc1nn(C)c(C)c1NC(=O)CC12CC3CC(CC(C3)C1)C2` gave PKD1 kinase inh 7, RGS16-Gao 100, HSV augment inactive and HSV augment primary fold 1.1.
Screening COC(=O)[C@H](Cc1ccccc1)NC(=O)O[C@H]1C(=O)c2ccc(OC)cc2O[C@@H]1c1ccc2c(c1)OCO2 returned GALR2 agonist -0.5, Insulin prom inh 5, PKD1 kinase inh -3, RGS16-Gao 102, HSV augment inactive, Insulin prom inh cell count 101 and HSV augment primary fold 0.78.
COc1cccc(C(=O)N2CCN(C3CCN(Cc4ccccc4)CC3)CC2)c1OC was read as RGS16-Gao 102, HSV augment inactive and HSV augment primary fold 0.91.
OCCNCc1ccc(OCc2ccc(Cl)cc2Cl)cc1 was read as PKD1 kinase inh 0, RGS16-Gao 103, HSV augment inactive and HSV augment primary fold 0.87.
CCOC(=O)/C(=C/c1c2ccccc2cc2ccccc12)NC(=O)c1ccccc1 was read as GALR2 agonist 0.9, Insulin prom inh -67, PKD1 kinase inh -1, RGS16-Gao 110, HSV augment inactive, Insulin prom inh cell count 122 and HSV augment primary fold 1.1.
`CCOc1ccc(C(=O)c2ccncc2)cc1` gave GALR2 agonist -0.6, Insulin prom inh 52, PKD1 kinase inh 9, RGS16-Gao 103, HSV augment inactive, Insulin prom inh cell count 128 and HSV augment primary fold 0.76.
`COc1ccc2nc3oc(C(=O)Nc4ccc(OC)c(OC)c4)cc3cc2c1` gave GALR2 agonist -3.0, Insulin prom inh 48, PKD1 kinase inh -1, RGS16-Gao 100, HSV augment inactive, Insulin prom inh cell count 124 and HSV augment primary fold 0.92.
For NS(=O)(=O)c1ccc(CNC(=O)CSc2ccccc2)cc1 the results were Insulin prom inh 0, PKD1 kinase inh 10, RGS16-Gao 100, HSV augment inactive, Insulin prom inh cell count 148 and HSV augment primary fold 0.89.
`CSCc1cc(N(C)C)nc(SCc2ccc(Cl)c(Cl)c2)n1` gave GALR2 agonist 0.0, Insulin prom inh -24, PKD1 kinase inh 7, RGS16-Gao 102, HSV augment inactive, Insulin prom inh cell count 93 and HSV augment primary fold 1.
O=C(NC(=S)N1CCN(c2ccc([N+](=O)[O-])cc2)CC1)c1ccc(F)cc1 was read as GALR2 agonist 0.7, Insulin prom inh 52, PKD1 kinase inh -10, RGS16-Gao 101, HSV augment inactive, Insulin prom inh cell count 163 and HSV augment primary fold 0.84.
Screening CCOC(=O)C1(CC2CCCCO2)CCN(C(=O)Nc2ccc(SC)cc2)CC1 (stereo not given) returned PKD1 kinase inh 12, RGS16-Gao 103, HSV augment inactive and HSV augment primary fold 0.95.
Screening CCCCN(CCCC)C(=O)c1nsnc1-c1ccccc1O returned GALR2 agonist -1.7, Insulin prom inh -18, PKD1 kinase inh 4, RGS16-Gao 98, HSV augment inactive, Insulin prom inh cell count 42 and HSV augment primary fold 0.93.
`COc1cc2c3nnc(-c4ccc(F)cc4)c-3cn(Cc3cccc(F)c3)c2cc1OC` gave Insulin prom inh inactive, PKD1 kinase inh 5, RGS16-Gao 106, HSV augment inconclusive and Insulin prom inh cell count 70.
CCOC(=O)CN1C2=NCCN2c2ccccc21 was read as GALR2 agonist -0.8, Insulin prom inh 22, PKD1 kinase inh -1, RGS16-Gao 44, HSV augment inactive, Insulin prom inh cell count 68 and HSV augment primary fold 1.
For O=C(NCc1ccccc1)C1CCCN1S(=O)(=O)c1cccc2cccnc12 (stereo not given) the results were GALR2 agonist 8.1, PKD1 kinase inh -4, RGS16-Gao 108, HSV augment inactive and HSV augment primary fold 0.84.
CC(=O)Nc1cc(N=Cc2ccc(O)cc2O)c(Cl)cc1Cl was read as GALR2 agonist -2.4, Insulin prom inh -5, PKD1 kinase inh -5, RGS16-Gao 98, HSV augment inactive, Insulin prom inh cell count 126 and HSV augment primary fold 1.
Cc1cc(S(=O)(=O)N2CCN(Cc3ccccc3)CC2)c(C)s1 was read as GALR2 agonist -1.0, PKD1 kinase inh -7, RGS16-Gao 95, HSV augment inactive and HSV augment primary fold 1.1.
`O=C(CSc1nc(C2CCCCC2)nc2ccccc12)NCc1ccc2c(c1)OCO2` gave GALR2 agonist -2.0, Insulin prom inh 22, PKD1 kinase inh -5, RGS16-Gao 102, HSV augment inactive, Insulin prom inh cell count 69 and HSV augment primary fold 1.
`NS(=O)(=O)c1ccc(NC(=O)Nc2cccc(Cl)c2)cc1` gave PKD1 kinase inh -5, RGS16-Gao 102, HSV augment inactive and HSV augment primary fold 1.

Assay outcomes (PubChem BioAssay)
